Compound activity deposited in PubChem BioAssay by National Center for Advancing Translational Sciences (NCATS).
Cruzain Triton: inhibitors of Trypanosoma cruzi cruzain with detergent | 0.43% of 200,000 active | P25779 | purified cruzain, Z-FR-AMC fluorescence, 0.01% Triton | Potency, µM, for the others: max response, negative = inhibition, hits mostly inhibitors; active = well fitted curve in the direction sought with a large enough effect; inconclusive = small, poorly fitted or top-dose-only effect, or another doubt; inactive = no such curve, though single readings can be large; an effect the other way counts as inactive or inconclusive;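 note: plate controls were neutral wells for no effect and buffer without enzyme for full effect; nearly all actives have a fitted effect of over 40% in size; top concentration of the series not given in the record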
Target sequence (P25779 123-467 limits assumed): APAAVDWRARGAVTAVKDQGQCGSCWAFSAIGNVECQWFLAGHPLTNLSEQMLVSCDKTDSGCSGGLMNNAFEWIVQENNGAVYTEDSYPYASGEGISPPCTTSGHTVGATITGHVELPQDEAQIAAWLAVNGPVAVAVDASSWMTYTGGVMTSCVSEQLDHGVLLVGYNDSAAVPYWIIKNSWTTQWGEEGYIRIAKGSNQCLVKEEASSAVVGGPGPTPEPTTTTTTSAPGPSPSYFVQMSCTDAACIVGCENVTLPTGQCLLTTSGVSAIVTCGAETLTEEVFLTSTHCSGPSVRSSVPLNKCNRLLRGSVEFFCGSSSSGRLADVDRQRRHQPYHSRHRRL
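Z-FR-AMC hydrolysis (2 uM substrate) by cruzain (1.5 nM) monitored kinetically at ex 360/em 450 nm after 15 min room-temperature compound exposure; 0.01% Triton X-100, pH 5.5, 5 mM DTT.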
LASV entry inh: blocks Lassa virus binding to or entry into cells; 1.2% of 300,000 active; Lassa virus pseudotype entry inhibition, cell reporter; control for the full effect not named in the record; AID 540256; Potency, µM (highest dose often 37.9 µM), inactives show top-dose activity change, negative = inhibition, most hits filed as inhibitors; active means well fitted inhibition curve with a large enough effect; inconclusive means small, poorly fitted or top-dose-only effect, or effect the other way; inactive means flat fitted curve, though single readings scatter; tested in HEK293 cells; note: % is set by controls: 0 for no effect and ±100 for the full control effect; nearly all actives have a fitted effect of over 50% in size; luciferase read-out
MARV entry inh: blocks Marburg virus binding to or entry into cells | Marburg virus pseudotyped entry inhibition, cell reporter; control for the full effect not named in the record; about a third of the inactives were read at about 46 µM | Potency, µM (top dose mostly 37.8 µM), for inactives: at the top dose activity change, negative = inhibition, usual class: inhibitors | 1.8% of 300,000 active | AID 540276; active = well fitted inhibition curve with a large enough effect; inconclusive = small, poorly fitted or top-dose-only effect, or effect the other way; inactive = flat fitted curve, though single readings scatter; tested in HEK293 cells; about a fifth of its hits are not listed in these tables; note: % is set by controls: 0 for no effect and ±100 for the full control effect; luciferase read-out
Cruzain inh noDet: cruzain (T. cruzi) inhibition without detergent; 2.3% of 200,000 active; AID 1476; purified cruzain, Z-FR-AMC fluorescence, no detergent; Potency, µM, for the others: max response, negative = inhibition, usual class: inhibitors; active = well fitted curve in the direction sought with a large enough effect; inconclusive = small, poorly fitted or top-dose-only effect, or another doubt; inactive = no such curve, though single readings can be large; an effect the other way counts as inactive or inconclusive;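 note: plate controls were enzyme without inhibitor for no effect and buffer without enzyme for full effect; nearly all actives have a fitted effect of over 40% in size; top concentration of the series not given in the record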
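Detergent-free condition (0.00005% Triton X-100) in acetate buffer pH 5.5 with DTT. 1.5 nM enzyme and compound were pre-mixed 15 min, then 2 uM Z-FR-AMC substrate added; reaction progress from fluorescence change between first and third reads (60 s).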
SARS PLP yeast: SARS-CoV PLP inhibition in yeast | Potency, µM (titrated, usually from 32.9 µM), inactives show at the top dose activity, positive = growth rescue | S. cerevisiae expressing SARS-CoV PLpro, growth rescue; control for the full effect not named in the record | 0.19% of 330,000 active; note: 0% is about no effect; nearly all actives have a fitted effect of over 55% in size; growth read by luminescence after 48 h
RE007 growth inh: less growth of the S. pombe RE007 Vpr strain; S. pombe RE007 Vpr strain, BacTiter-Glo ATP luminescence, 24 h; control for the full effect not named in the record; Potency, µM (top dose mostly 92.2 µM), for inactives: at the top dose activity change, negative = less growth; 0.21% of 360,000 active; active = well fitted falling curve with a large enough effect; inconclusive = small, poorly fitted or top-dose-only effect; inactive = no such curve, though single readings can be large or run the other way;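 note: % is set by controls: 0 for no effect and ±100 for the full control effect; nearly all actives have a fitted effect of over 50% in size; the assay follows cell death caused by Vpr and the record does not say whether a fall means rescue or toxicity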
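Fission yeast strain RE007, carrying one chromosomally integrated HIV-1 vpr copy, was seeded at OD 0.01 in PMG+AL medium with 23 nL pinned compound. After 24 h at 30 °C and 99% humidity, viability was read by BacTiter-Glo luminescence.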
NS1 function inh: influenza NS1 inhibition; 0.4% of 270,000 active; Potency, µM (series often up to 46.1 µM), without a hit: at the highest dose activity, positive = more growth; S. cerevisiae slowed by influenza A NS1, growth recovery by OD600; note: actives are rising curves; nearly all actives have a fitted effect of over 50% in size
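In this qHTS, NS1 from influenza A is expressed in budding yeast, where it slows growth. Cells are switched from glucose to 2% galactose medium (pH 6.0, -URA), treated with compound, and growth recovery is read at OD600.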
2A StopGo: lowers the luciferase signal of an FMDV 2A StopGo reporter; human cells with a luciferase reporter of 2A StopGo recoding; control for the full effect not named in the record; Potency, µM (titrated, usually from 57.9 µM), for inactives: top-dose signal change, negative = less light; 1.2% of 410,000 active; AID 1159524; active = well fitted falling curve with a large enough effect; inconclusive = small, poorly fitted or top-dose-only effect; inactive = no such curve, though single readings can be large or run the other way; tested in HEK293T cells; note: % is set by controls: 0 for no effect and ±100 for the full control effect; nearly all actives have a fitted effect of over 45% in size; luciferase light after 4 h
Starred values were filed as active, the others as inactive; ? = inconclusive; . = no result given; & = joins results of further samples; [ ] = dose if it differs, or a comment. Unless noted, calls come from the whole dose curve; as a rule, active means well fitted rising curve with a large enough effect; inconclusive means small, poorly fitted or top-dose-only effect; inactive means no such curve, though single readings can be large or run the other way. Potency is the fitted concentration of half-maximal effect. Rows were taken by chance; about 4.7% have a hit in one of these screens.

Sample of the layout (six entries):
SMILES	Cruzain Triton	LASV entry inh	MARV entry inh	Cruzain inh noDet	SARS PLP yeast	RE007 growth inh	NS1 function inh	2A StopGo
Cc1cc(C(F)(F)F)n(-c2nc(C(=O)Nc3cccnc3)cs2)n1	.	0%	-11%	.	-1%	15%	0%	4%
Cc1ccc2nc(NCc3ccco3)c(C=NCc3ccco3)c(=O)n2c1	-15%	2%	10%	-14%	2%	1%	-60%	25%
Cc1ccc(Cl)cc1NC(=O)CCS(=O)(=O)c1ccc2c(c1)n(C)c(=O)c(=O)n2C	0.5%	?	0%[46.1 µM]	-11%	.	-3%	.	-23%&-5%
CCOC(=O)c1cccc(-n2c(C)nc3ccccc3c2=O)c1	-6.1%	-10%	2%	0%	-7%	-12%	-6%	-8%
Cn1c(-c2ccccc2)cc2ccccc21	.	-25%	-25%	.	-2%	-9%	2%	35%[activator]
CC(C)[C@H](NC(=O)N1CCC(Cc2ccccc2)CC1)C(=O)O	.	.	.	.	-2%	1%	0%	0%

All compounds of this part, from the first entry:
SMILES	Cruzain Triton	LASV entry inh	MARV entry inh	Cruzain inh noDet	SARS PLP yeast	RE007 growth inh	NS1 function inh	2A StopGo
Cc1cc(C(F)(F)F)n(-c2nc(C(=O)Nc3cccnc3)cs2)n1	.	0%	-11%	.	-1%	15%	0%	4%
Cc1ccc2nc(NCc3ccco3)c(C=NCc3ccco3)c(=O)n2c1	-15%	2%	10%	-14%	2%	1%	-60%	25%
Cc1ccc(Cl)cc1NC(=O)CCS(=O)(=O)c1ccc2c(c1)n(C)c(=O)c(=O)n2C	0.5%	?	0%[46.1 µM]	-11%	.	-3%	.	-23%&-5%
CCOC(=O)c1cccc(-n2c(C)nc3ccccc3c2=O)c1	-6.1%	-10%	2%	0%	-7%	-12%	-6%	-8%
Cn1c(-c2ccccc2)cc2ccccc21	.	-25%	-25%	.	-2%	-9%	2%	35%[activator]
CC(C)[C@H](NC(=O)N1CCC(Cc2ccccc2)CC1)C(=O)O	.	.	.	.	-2%	1%	0%	0%
CCN(CC)S(=O)(=O)c1ccc(S(=O)(=O)N(Cc2ccccn2)Cc2ccco2)cc1	-1.8%	?	-12%	-1%	3%	14%	-6%	.
Cc1ccc(C#N)c(SCc2nnc(-c3ccc(Cl)cc3)o2)n1	-14%	?	2.1µM*	-7%	-13%	1%	-5%	20µM*
COCCCNc1ncnc2c1c(-c1ccccc1)cn2-c1ccc(C)c(Cl)c1	1.1%	2%[46.1 µM]	.	6%	.	.	.	?
O=S1(=O)N=C(N(Cc2cccs2)c2ccc(O)cc2)c2ccccc21	.	?	-1%	.	0%	-1%	2%	-7%
Cc1nc(N)nc(N)c1CCCc1ccc(Cl)c(Cl)c1	.	?	?	.	.	-6%	.	-9%
COC(=O)Nc1nc(C)c(C(=O)N(C)C)s1	7.0%	-5%	-15%	1%	-11%	5%	-6%	-23%
Cc1cc(Br)ccc1NC(=O)CNC(=O)CN(C)Cc1nc2ccccc2c(=O)[nH]1	-0.5%	-7%	-2%&-15%	3%	-1%	0%	-2%	.
CC(CC(=O)NCc1ccc(Cl)cc1)c1ccccc1 (centres undefined)	.	.	.	.	-2%	3%	-23%	21%
CCSc1ncc(Cl)c(C(=O)Nc2c(C(=O)c3ccc(C)c(F)c3)oc3ccccc23)n1	-0.9%	1%[46.1 µM]	0%[46.1 µM]	-4%	.	.	.	-18%
COc1ccc2[nH]c3c(c2c1)CCN1C(=O)N([C@@H](C)C(=O)NCc2c(F)cccc2Cl)C(=O)[C@]31C	.	.	.	.	-24%	?	-4%	?
Cc1ccc(OCC(=O)Nc2ccc3[nH]c(=O)sc3c2)cc1	-1.9%	18%[46.1 µM]	3%[46.1 µM]	-4%	.	.	.	15%
CCn1c(SCC(=O)NCc2ccc3c(c2)OCO3)nc2c(c1=O)SCC2	.	-15%	15%	.	3%	3%	-7%	0%
COCCn1c(=NC(=O)c2ccccc2[N+](=O)[O-])sc2cc(S(C)(=O)=O)ccc21	-5.1%	?	?	-6%	22%	-1%	0%	-1%
C=CCC(Nc1ccc(OC)cc1)(C(=O)OCC)c1ccccc1 (centres undefined)	2.5%	?	?	4%	.	.	.	.

A different layout for some results above:
| structure | Cruzain Triton | LASV entry inh | MARV entry inh | Cruzain inh noDet | SARS PLP yeast | RE007 growth inh | NS1 function inh | 2A StopGo |
| --- | --- | --- | --- | --- | --- | --- | --- | --- |
| CCn1c(SCC(=O)NCc2ccc3c(c2)OCO3)nc2c(c1=O)SCC2 | . | -15% | 15% | . | 3% | 3% | -7% | 0% |
| COCCn1c(=NC(=O)c2ccccc2[N+](=O)[O-])sc2cc(S(C)(=O)=O)ccc21 | -5.1% | ? | ? | -6% | 22% | -1% | 0% | -1% |
| C=CCC(Nc1ccc(OC)cc1)(C(=O)OCC)c1ccccc1 (centres undefined) | 2.5% | ? | ? | 4% | . | . | . | . |

(listing goes on)
SMILES	Cruzain Triton	LASV entry inh	MARV entry inh	Cruzain inh noDet	SARS PLP yeast	RE007 growth inh	NS1 function inh	2A StopGo
Cn1c(=O)c([N+](=O)[O-])c(-n2ccnc2)c2ccccc21	.	?	?	.	-1%	-2%	.	32µM*
CN(CC(=O)Nc1ccccc1Br)C(=O)CNC(=O)c1ccc(Oc2ccccc2)cc1	.	.	.	.	6%	20%	5%	-6%
Cn1c(-c2ccncc2)nc2ccccc21	.	.	.	.	-2%	-2%	2%	-9%
CC(=O)N/N=C(\C)C1COc2ccccc2O1 (centres undefined)	.	14%	?	.	0%	18%	8%	0%
COc1ccc(S(=O)(=O)Nc2ccc(-c3cn4ccsc4n3)cc2)cc1C	-3.3%	-3%[46.1 µM]	.	?	.	.	.	-24%
CC(C)CC(NC(=O)C1CCC(=O)N1)C(=O)NC(CC(C)C)C(=O)N1CCCC1C(N)=O (centres undefined)	.	.	.	.	29%	0%	-10%	24%
CSc1ccccc1NC(=O)CN(Cc1ccc(Cl)cc1)S(C)(=O)=O	-3.1%	?	-12%	?	1%	2%	-47%	.
CN(CCOc1ccccc1)C(=O)C1CCC(=O)N(CCN2CCOCC2)C1 (centres undefined)	.	14%	26%	.	-3%	-18%	5%	-16%
CCCc1cc2c(=O)c(-c3ccc4c(c3)OCCO4)c(C)oc2cc1OS(C)(=O)=O	-0.1%	-21%	-27%	-16%	2%	-4%	23%	?
ClCc1csc(-c2ccc(Cl)cc2)n1	-4.6%	11%	-4%	-4%	0%	-16%	-1%	3%
CSc1ccccc1NC(=O)C1C2CCC(C2)C1C(=O)O (centres undefined)	.	4%	?	.	-1%	-7%	2%	3%
N#Cc1ccc(/C=N/NC(=O)CCc2ccc(S(=O)(=O)N3CCOCC3)cc2)cc1	-4.2%	?	-2%	-4%	-20%	3%	-13%	-24%
C#C[C@@]1(O)CCC2C3CCC4=C/C(=N/OCC(=O)NC(CCC(N)=O)C(=O)O)CC[C@]4(C)C3CC[C@@]21C (some centres undefined)	.	.	.	.	4%	7%	5%	-9%
c1ccc(Cn2nnnc2C(c2ccccn2)N2CCOCC2)cc1 (centres undefined)	1.9%	-20%	-4%	9%	-3%	1%	2%	.
CC1CC(C)CN(C(=O)COC(=O)CNS(=O)(=O)/C=C/c2ccccc2)C1 (centres undefined)	-9.3%	8%	8%	-12%	-12%	-12%	-54%	0%
CCOC(=O)Cn1nc(C)c(NC(=O)COc2ccccc2[N+](=O)[O-])c1C	.	-6%	1%[46.1 µM]	.	3%	1%	.	-16%
Cc1ccc(N2CC(C(=O)Nc3ccc(C)c(S(=O)(=O)N(C)C)c3)CC2=O)cc1 (centres undefined)	.	-8%	?	.	0%	11%	.	0%
Cc1ccc(N(C(=O)CNC(=O)c2ccco2)C(C(=O)NC2CCCCC2)c2cccnc2)cc1C (centres undefined)	.	-7%	-7%[46.1 µM]	.	-2%	5%	-18%	-7%
C=C1C[C@]2(O)[C@@]3(C)CCC(=O)C(C)(C)C3=C(O)C(=O)[C@@]2(C)[C@@H]2C(=O)O[C@@](C)(C(=O)OC)C(=O)[C@@]12C	.	.	.	.	5%	13%	5%	38%[activator]
Oc1ccc(Cl)cc1-c1cc(C(F)(F)C(F)F)nc(-c2ccccc2)n1	2.5%	-10%	-4%	?	12%	7%	-1%	-17%
O=C(OC(C(=O)NC1CCCC1)c1cccnc1)C1=Cc2ccccc2OC1 (centres undefined)	-12%	10%	25%	-5%	-3%	7%	-15%	3%
CCOP(=O)(OCC)c1nc(-c2ccc(C)cc2)oc1NCc1ccccc1	-10%	-15%	?	?	-9%	6%	1%	-3%
O=C(NNc1nc2ccc(F)cc2s1)c1cccc(F)c1	.	?	11µM*	.	-2%	14%	.	6%
CCC(=O)NCCNc1nc2cc(C)cc(C)c2cc1C#N	.	10%[46.1 µM]	-16%[46.1 µM]	.	3%	-1%	0%	-8%
O=C(Nc1nnc(-c2ccc(Cl)cc2)o1)C1=COCCO1	-1.3%	2%	?	14%	-1%	.	-13%	32%[activator]
CC(Sc1ccc(Cl)cc1)C(=O)NCC(c1ccco1)N1CCCCC1 (centres undefined)	.	1%[46.1 µM]	-28%	.	-4%	-9%	.	?
COc1ccc(S(=O)(=O)N2CCN(CC(=O)Nc3cccc(OC)c3)CC2)cc1	.	.	.	.	?	-5%	-28%	-20%
Clc1cccc(CN2COc3c(cc(Cl)c4cccnc34)C2)c1	-3.3%	?	-34%	-18%	-41%	.	-30%	.
COc1ccccc1NC(=O)CCC(=O)OCc1cccc([N+](=O)[O-])c1	.	-7%	2%[46.1 µM]	.	13%	-2%	.	-4%
O=C(NCCN1CCOCC1)c1ccc(NS(=O)(=O)c2ccccc2)cc1	.	-3%	2%	.	5%	-3%	2%	-8%
